H5N1 CPE: MDCK cell protection from H5N1 avian flu. cytopathic effect, luminescence, 72 h; active compounds read high; no value below 0 was filed and about half of the inactive calls have no number; reference of the scale not given here. inhibition, % at 50 µM. 96,000 tested, 0.07% active. AID 740; in the data active = inhibition above about 25%
* hit, by the source's call; i = inactive. A portion of the library, so the mix of outcomes need not match the whole.

SMILES	H5N1 CPE
CC(C)Oc1ccc(CNCCC2(C(C)C)CCOC(C)(C)C2)cc1 (configuration not stated)	i
CCOC(=O)c1nnn(-c2nonc2OC)c1-c1ccccc1	0.2
Cc1cc(C=O)c(C)n1-c1ccc(N2CCCC2)c([N+](=O)[O-])c1	i
O=S(=O)(Nc1cnc2ccccc2c1)N1CCCCCC1	i
CCCc1[nH][nH]c(=O)c1C(c1cccc(Cl)c1)C(C#N)C#N (configuration not stated)	i
O=C(O)c1cc(S(=O)(=O)Nc2ccc3oc(=O)sc3c2)ccc1O	i
COc1ccc(-c2nn(-c3ccccc3)cc2/C=C2/SC(=S)N(Cc3ccco3)C2=O)c(C)c1	i
Cc1cc(C)c2c(n1)nn1c(-n3ccnc3)cc(C)nc21	1.8
CC(=O)OC1N=C(c2ccc(Cl)cc2)c2cc(Br)ccc2NC1=O (configuration not stated)	i
Brc1cccc(OCCOCCn2ccnc2)c1	i
CCOC(=O)N1CCC(N(C(=O)Nc2ccccc2)C(C)CC)CC1 (configuration not stated)	0.1
Cc1ccc(SCC(=O)NCc2ccco2)cc1	0.9
Cc1ccc(S(=O)(=O)N2CCN(c3nc4ccccc4nc3-n3nc(C)cc3C)CC2)cc1	0.8
CCOC(=O)c1ccc2cccc(C)n2c1=O	0.5
O=C1CN(C(=O)c2ccc(Br)o2)C(c2ccccc2)c2cc(Cl)ccc2N1 (configuration not stated)	0.8
COc1cc(CNCCSc2nnnn2C)cc(Br)c1OCc1ccc(F)cc1	i
N#C/C(=C\c1ccc(O)c(O)c1)S(=O)(=O)c1ccccc1	1.7
O=C(NCc1nnc(SCC(=O)N2CCN(c3ccccc3)CC2)o1)c1ccco1	i
CNC(=S)N1CCN(c2c(F)cc3c(=O)c(C(=O)O)cn(C4CC4)c3c2OC)CC1C (configuration not stated)	2.0
CCOC(=O)C1CCN(C(=O)N2CCOCC2)CC1	0.0
O=C(O)c1cc(N2C(=O)C3C4C=CC(C4)C3C2=O)ccc1NCc1cccnc1 (configuration not stated)	i
COc1cc(CNc2ncn[nH]2)cc(Br)c1OC	0.9
CCn1cc(C(=O)NCc2ccco2)c2cc(OC)c(OC)cc2c1=O	0.3
CCOC(=O)c1[nH]c2cc(OC)c(OC)cc2c1NC(=O)CN1CCN(C)CC1	i
CCCCCCNc1c(C(=O)OCC)c(=O)[nH]c2ccccc12	0.2
SMILES	H5N1 CPE
O=C(Nc1ccccn1)[C@@H]1CCC(=O)N1C(=O)OCc1ccccc1	i
CS(=O)(=O)Nc1ccccc1C(=O)Nc1ccc2c(c1)OCCO2	5.4
CCOC(=O)N1CCN(c2c(NCc3cccs3)c(=O)c2=O)CC1	i
O=C(Nc1ccc(OCc2ccccc2)cc1)c1cccnc1	i
COc1cc(NS(=O)(=O)c2ccc(OC)c(OC)c2)cc(OC)c1	i
COCC(=O)Nc1cc(OC)ccc1OC	i
COC(=O)c1cc(NC(=O)Cn2c(=O)cnc3ccccc32)cc(C(=O)OC)c1	1.1
CCOC(=O)C(Cc1ccc(NC(=O)/C(=C/c2ccccc2)NC(=O)c2ccccc2)cc1)N1C(=O)c2ccccc2C1=O (configuration not stated)	i
CN(C)CCNC(=O)c1ccc(COCC(F)(F)F)cc1	0.1
CCCNC(=O)CN(C)C(=O)c1n[nH]c2ccccc12	i
O=C(Nc1ccc(Cc2ccc(NC(=O)N3CCOCC3)cc2)cc1)N1CCOCC1	i
Cc1cccc(C)c1-n1c(C)cc(/C=N\Nc2ccc([N+](=O)[O-])cn2)c1C	1.5
CC(C)CNS(=O)(=O)c1ccccc1C(=O)N1CCCCC1	0.1
Cc1c(NC(=S)/C=C2\N(C)c3ccccc3C2(C)C)c(=O)n(-c2ccccc2)n1C	i
CN(Cc1ccccc1)c1nc2c(c(=O)[nH]c(=O)n2C)n1CCCc1ccccc1	0.1
CCCN1C(=O)c2cc(C(=O)NC3CCCC3)ccc2C1O (configuration not stated)	0.4
Cc1cc(=O)[nH]c(Nc2cccc(C(F)(F)F)c2)n1	i
O=C1c2cccnc2C(O)N1Cc1ccccc1 (configuration not stated)	0.0
N#Cc1nc(COc2ccccc2)oc1NCCCn1ccnc1	i
COC(=O)C1=C(C)Nc2ncnn2C1c1ccc(C)o1 (configuration not stated)	0.1
Brc1ccc(-c2nn3c(-c4ccccn4)nnc3s2)o1	2.7
CNC(=O)CN(c1ccc2c(c1)OCCO2)S(C)(=O)=O	0.2
COc1ccc(OC)c(C2CC(=O)N3CN(c4cccc(Cl)c4)CSC3=C2C#N)c1 (configuration not stated)	1.5
O=C(NCc1ccco1)C1CCCN(S(=O)(=O)c2ccc(-n3cnnn3)cc2)C1 (configuration not stated)	i
O=C(NCc1ccccc1)c1c(F)c(F)c(F)c(F)c1F	i

Part of the list above, reformatted:
Structure | H5N1 CPE
COC(=O)c1cc(NC(=O)Cn2c(=O)cnc3ccccc32)cc(C(=O)OC)c1 | 1.1
CCOC(=O)N1CCC(N(C(=O)Nc2ccccc2)C(C)CC)CC1 (configuration not stated) | 0.1

Carrying on:
SMILES	H5N1 CPE
CC1CCC(C(=O)NC(C(=O)NCCCN2CCOCC2)C(C)C)CC1 (configuration not stated)	0.6
CCC1(C(=O)c2ccccc2)C2c3cc(Br)ccc3OC(=O)C21C(=O)N1CCOCC1 (configuration not stated)	i
CC(C)CCNC(=O)c1ccc2c(c1)ncn2C1CCCCC1	1.9
Cc1nnc2n(-c3ccccc3)c(=O)c3c4c(sc3n12)COC(C)(C)C4	0.9
CCCCOc1ccc(NC(=O)C(=O)NCCC2=CCCCC2)cc1	i
O=C(CSc1ccccc1C(=O)O)Nc1cccc(C(=O)O)c1	0.7
Cc1cccc(-c2nnc(SCCOc3ccc4c(C)cc(=O)oc4c3)o2)c1	i
CC(NC(=O)c1ccco1)C1CCCO1 (configuration not stated)	i
CC(=O)c1ccc(NC(=O)CCC(=O)OCC(F)(F)C(F)F)cc1	0.5
COC(=O)Cc1c(C)c2cc(Cl)c(OC(=O)c3ccco3)cc2oc1=O	0.2
COc1ccc(-c2noc(CN(C(=O)c3cccs3)C(C)C)n2)cc1	i
CC(=O)Nc1ccc(C(=O)CSc2nnc(Cc3ccccc3)o2)cc1	0.6
O=C(CSc1nc2ccccc2[nH]1)c1ccco1	0.1
CCc1cc(-c2n[nH]c(=S)n2Cc2ccccc2)cs1	0.6
CCSC(=O)CCCCCCCCCCCO	i
CC(C)(C)NC(=O)c1ccc2c(c1)N(CC(=O)N1CCN(c3ccccc3F)CC1)C(=O)C(C)(C)O2	i
COc1ccc(/C=C\C(=O)c2c(O)ccc3c(C)cc(=O)oc23)cc1	1.4
COC(=O)c1[nH]c2cccc(OC)c2c1NC(=O)CN1CC2(C)CC1CC(C)(C)C2 (configuration not stated)	i
Cc1cc(CCC(=O)O)c(C)cc1CCC(=O)O	i
Cc1ccnc(NS(=O)(=O)c2ccc(NS(=O)(=O)c3cccs3)cc2)n1	i
O=C(OCC#CCSc1nnc(-c2ccccc2)o1)c1cc2ccccc2o1	i
Cc1ccccc1NC(=O)CC1S/C(=N/c2nccs2)N(C)C1=O (configuration not stated)	0.8
NS(=O)(=O)c1cccc(NC(=O)Cn2cnc3ccccc3c2=O)c1	i
COc1cc(Cl)c(S(=O)(=O)N2CCN(Cc3ccc4c(c3)OCO4)CC2)cc1Cl	0.3
Cc1cc(S(=O)(=O)NCCN(C)C)c(C)s1	0.0
SMILES	H5N1 CPE
CCOc1nc(-c2ccc(OC)cc2)ccc1-c1noc(-c2cc(OC)c(OC)c(OC)c2)n1	i
Cc1cccc(NC(=O)Cn2cnc3ccccc3c2=O)c1C	i
OCCn1c(CSc2nnc(-c3ccco3)n2-c2ccccc2)nc2ccc(Cl)cc21	2.9
CC(C)(Oc1ccc(Cl)cc1)C(=O)NCCCn1ccnc1	1.5
S=C(NCc1cccnc1)Nc1ccc(Cl)cc1	i
Cc1cc(NO)nc(-c2ccc(Br)cc2)n1	i
O=C(COc1ccc(S(=O)(=O)N2CCCC2)cc1Cl)Nc1ccc2c(c1)OCO2	i
N=c1ccn(Cc2ccc(Cl)cc2Cl)cc1	i
O=C(CSc1nnc(-c2ccccc2)c(-c2ccccc2)n1)N1CCc2ccccc21	i
O=C(CC1CCCCC1)N1CCC(c2nc(-c3ccc(S(=O)(=O)N4CCCC4)cc3)no2)CC1	1.1
C=CCNC(=O)c1cccc(Br)c1	1.5
CCn1c(CNC(=O)COc2ccc(C(C)C)cc2)nnc1SCC(=O)Nc1ccccc1F	i
CCCSc1nnc2n(C)c(=O)c3c4c(sc3n12)CCC4	2.4
CCOC(=O)c1c(NC(=O)c2cc(CC(C)C)on2)sc(C(C)=O)c1C	i
Nc1nnc(SCc2ccc(F)cc2)s1	i
COc1cccc(NC(=O)CSc2nnc(C)s2)c1	i
C/C=C/Cn1c(SCc2ccc(C)cc2)nc2c1c(=O)[nH]c(=O)n2C	i
CCOC(=O)c1ccccc1NC(=O)/C(C)=C/C(=O)O	i
CCOC(=O)c1c(OCC)[nH]c2c1cc(O)c1ccccc12	2.5
Cc1ccc(C(=O)N/C(=C\c2cccs2)C(=O)NCc2ccncc2)cc1	i
Cc1cc(C)c(C)c(S(=O)(=O)Nc2ccc(O)cc2)c1C	1.4
COC(=O)c1cc(OC)c(OC)cc1NC(=O)c1ccccc1	i
COc1ccc(C(=O)C(OC(=O)c2ccc(C)c(NC(C)=O)c2)c2ccccc2)cc1 (configuration not stated)	i
COc1ccc(C2c3c(ccc4ccccc34)Oc3ncn4nc(CO/N=C/c5ccccc5)nc4c32)cc1 (configuration not stated)	2.5
NCCc1nnc(SCc2ccc(F)cc2)o1	i

Part of the list above in order of formula weight, smallest number first:
SMILES	H5N1 CPE
C=CCNC(=O)c1cccc(Br)c1	1.5
Nc1nnc(SCc2ccc(F)cc2)s1	i
NCCc1nnc(SCc2ccc(F)cc2)o1	i
S=C(NCc1cccnc1)Nc1ccc(Cl)cc1	i
CCOC(=O)c1c(OCC)[nH]c2c1cc(O)c1ccccc12	2.5
Cc1cc(C)c(C)c(S(=O)(=O)Nc2ccc(O)cc2)c1C	1.4
CCCSc1nnc2n(C)c(=O)c3c4c(sc3n12)CCC4	2.4
CC(C)(Oc1ccc(Cl)cc1)C(=O)NCCCn1ccnc1	1.5
C/C=C/Cn1c(SCc2ccc(C)cc2)nc2c1c(=O)[nH]c(=O)n2C	i
Cc1ccc(C(=O)N/C(=C\c2cccs2)C(=O)NCc2ccncc2)cc1	i
CCOC(=O)c1c(NC(=O)c2cc(CC(C)C)on2)sc(C(C)=O)c1C	i
COc1ccc(C(=O)C(OC(=O)c2ccc(C)c(NC(C)=O)c2)c2ccccc2)cc1 (configuration not stated)	i
OCCn1c(CSc2nnc(-c3ccco3)n2-c2ccccc2)nc2ccc(Cl)cc21	2.9
CCOc1nc(-c2ccc(OC)cc2)ccc1-c1noc(-c2cc(OC)c(OC)c(OC)c2)n1	i
CCn1c(CNC(=O)COc2ccc(C(C)C)cc2)nnc1SCC(=O)Nc1ccccc1F	i
O=C(CC1CCCCC1)N1CCC(c2nc(-c3ccc(S(=O)(=O)N4CCCC4)cc3)no2)CC1	1.1
COc1ccc(C2c3c(ccc4ccccc34)Oc3ncn4nc(CO/N=C/c5ccccc5)nc4c32)cc1 (configuration not stated)	2.5

Continued:
SMILES	H5N1 CPE
COc1ccc(C(O)CNc2ccc(C)cc2)cc1 (configuration not stated)	i
Cc1ccc2nc(-c3cccnc3SCC(=O)N3c4ccccc4CC3C)[nH]c2c1 (configuration not stated)	i
CCc1nnc(NC(=O)CCN2C(=O)c3ccccc3S2(=O)=O)s1	i
Cc1cc(NC(=O)Cc2cn3ccsc3n2)n(-c2ccccc2)n1	1.6
CCCN(CCC)C(=O)c1cc(-c2ccc3c(c2)OCO3)nc2ccccc12	i
CCN(CC)C(=O)C1CCCN(Cc2ccc3c(c2)OCO3)C1 (configuration not stated)	i
CN1CCC(N(C)C(=O)COc2ccccc2-c2ccccc2)CC1	i
CC(C)(C)N1C(=O)c2ccc(C(=O)NCc3ccco3)cc2C1=O	1.6
O=C1c2ccccc2C(=O)N1Cc1nc2ccccc2c(=O)n1-c1cccnc1	0.4
CCOc1ccccc1NC(=O)c1ccccc1-c1nc(-c2ccccc2OC)no1	i
CC1Cc2ccccc2N1C(=O)COC(=O)Cn1cnc2ccccc2c1=O (configuration not stated)	i
CN(C)c1nc(N)nc(CSc2nnnn2-c2cccc3ccccc23)n1	0.8
CC(O)CNc1nc2c(c(=O)n(C)c(=O)n2C)n1Cc1cccc(Br)c1 (configuration not stated)	1.7
COc1cc(C2C(C#N)=C(C)NC3=C2C(=O)c2ccccc23)cc(OC)c1OC (configuration not stated)	3.8
Cc1ccc(-c2ccc(/C=N/n3cnnc3)o2)cc1Cl	0.9
CCOC(=O)N1CCN(S(=O)(=O)c2c(C)[nH]c(=O)[nH]c2=O)CC1	0.5
Cc1ccc(S(=O)(=O)N2CCCN(S(=O)(=O)c3ccc(C)cc3)CC2)cc1	4.0
CCn1c(=O)cc(OCC(=O)Nc2ccccc2C#N)c2ccccc21	6.9
Cc1ncsc1CCOC(=O)C12CC3CC(CC(C3)C1)C2	9.5
O=C(NCc1ccco1)c1ccc(COCC(F)(F)F)cc1	0.2
CCOC(=O)N1CCC(NC(=O)C2CCCN2C(=O)OCc2ccccc2)CC1 (configuration not stated)	0.1
CC1=C(C(=O)OCC2CCCO2)C(c2ccncc2)C2=C(CCCC2=O)N1 (configuration not stated)	0.0
O=C(CSc1nc2ccccc2[nH]1)N1CCN(c2ccccc2)CC1	0.3
CCOC(=O)c1cc(-c2ccc(/C=C3/C(=O)NC(=O)C(C#N)=C3C)o2)ccc1Cl	2.6
CCCCNc1c(C(=O)OCC)c(=O)[nH]c2ccccc12	0.1
SMILES	H5N1 CPE
CC(C)C1=CC(=NS(=O)(=O)c2cccc([N+](=O)[O-])c2)C=C(C(C)C)C1=O	i
COc1cccc(C(=O)CSc2nnc(-c3ccco3)n2CC2CCCO2)c1 (configuration not stated)	0.6
COc1ccc2oc(=O)c(C(=O)NCC3CCCO3)cc2c1 (configuration not stated)	i
COc1cccc2sc(NC(=O)c3ccc(Br)s3)nc12	i
COc1ccc(OC)c(NC(=O)CCN2CCC(C)CC2)c1	1.2
COc1ccc(CNC(=O)CN(Cc2ccccc2)S(=O)(=O)c2ccc(Cl)cc2)cc1	0.3
COc1ccc(-c2nnn(CC(=O)c3ccccc3)n2)cc1OC	i
CCOC(CNC(=O)c1ccc2nc(N3CCC(C)CC3)sc2c1)OCC	i

Assay outcomes: PubChem BioAssay, SRMLSC
